Assay outcomes: PubChem, Southern Research Institute
Mtb H37Rv – Confirmatory growth inhibition assay against Mycobacterium tuberculosis H37Rv, potency (AID 1949); one-dose inhibition, % at 10 µg/mL; IC50 in µg/mL for titrated hits; most inactive calls were filed without a number and no value below 0 was filed; 100,000 compounds, 1.6% hits;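 active = confirmed in a dose series; inconclusive = about 50% or more but not retested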;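 also: bacteria grown 7 days with compound before Alamar blue readout; 0% = untreated bacteria and 100% = reference antibiotic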
Starred values were filed as active, the others as inactive; i = inactive; ? = inconclusive.

SMILES | Mtb H37Rv
COc1cc(C(=O)NC(=S)Nc2cc3nn(-c4ccc(C)cc4)nc3cc2C)cc(OC)c1OC | 4%
Fc1cccc(Cl)c1CNc1ccc(CNc2ncn[nH]2)cc1 | 1%
CCOc1ccc(Cc2nnc(N)s2)cc1OCC | 1%
O=C(c1ccc([N+](=O)[O-])cc1)n1nc(-c2ccco2)nc1SCc1ccccc1 | i
O=S(=O)(NCCCN1CCOCC1)c1ccccc1 | i
Cc1cc(Cl)ccc1NC(=O)C(C)N(c1ccc(Oc2ccccc2)cc1)S(C)(=O)=O (stereo not drawn) | i
COc1ccc(-c2nc3cc(NC(=O)COc4ccc(C)cc4C)ccc3o2)cc1 | i
COc1ccc(CNC(=O)C(C)Oc2ccc(Cl)cc2C)cc1 (stereo not drawn) | 18%
CCCOc1c(OC)cccc1C1NC(=S)NC(C)=C1C(=O)OC (stereo not drawn) | i
O=C(Cn1nnc(-c2ccccc2F)n1)Nc1ccccc1I | 4%
c1cncc(-c2nn3c(C4COc5ccccc5O4)nnc3s2)c1 (stereo not drawn) | i
O=C(CN1C(=O)CN(c2ccccc2)C1=O)Nc1cccc2ccccc12 | i
COc1cc(/C=C(/C#N)c2ccc(Cl)cc2)c(Br)cc1O | i
CCOC(=O)Nc1nc2ccccc2[nH]1 | 10%
C=CCNC(=O)CNS(=O)(=O)c1ccc(F)cc1 | i
CCCN(CCC)S(=O)(=O)c1ccc(NC(=O)C(Cl)Cl)cc1 | i
CCc1ccc(S(=O)(=O)Nc2ccc(OC(=O)c3ccc(Cl)cc3)cc2)cc1 | i
Cc1cc(=O)oc2cc(OCCN3CCOCC3)ccc12 | i
O=C(CSCc1ccccc1Br)Nc1cccc([N+](=O)[O-])c1 | i
Oc1ccc(Br)cc1-c1n[nH]c(=S)n1Cc1ccccc1 | i
Cc1ccc(C(=O)Nc2ccc(Br)cn2)o1 | i
O=S(=O)(NC1CCCCC1n1cc(-c2ccccc2)nn1)c1ccccc1 (stereo not drawn) | i
COc1cccc(N(CC(=O)N2CCN(c3cccc(Cl)c3)CC2)S(C)(=O)=O)c1 | i
O=C(Nc1cccnc1)c1sc2cc(Cl)ccc2c1Cl | 1%
Cc1ccc(/C(N)=N/OC(=O)CN(C)S(=O)(=O)c2ccc(C)cc2)cc1 | 4%
Carrying on.
SMILES | Mtb H37Rv
Cc1ccc(C(=O)Nc2ccc(Nc3ccccc3)cc2)cc1C | i
COc1ccc(NC(=O)C2=C(C)NC3=C(C(=O)CC(c4ccc(OC)c(OC)c4)C3)C2c2cc(OC)ccc2OC)cc1 (stereo not drawn) | i
CC(C)c1ccc(S(=O)(=O)N2CCCN(S(=O)(=O)c3ccc(C(C)C)cc3)CC2)cc1 | i
O=C(CCc1nc(-c2ccc(Cl)cc2)no1)OCc1ccc(Br)cc1 | i
COc1cc(OC)cc(C(=O)Nc2ccc(S(=O)(=O)Nc3cc(OC)ncn3)cc2)c1 | i
COc1ccc(Cl)cc1NC(=O)C(=O)NCc1ccccn1 | 1%
COc1ccc(S(=O)(=O)N(CC(=O)Nc2cccc([N+](=O)[O-])c2)c2ccccc2OC)cc1 | i
N#C/C(=C\Nc1ccccc1)c1ccccc1 | 3%
CC1(C(=O)NCCCn2ccnc2)CC1(Cl)Cl (stereo not drawn) | i
COC(=O)CN(c1ccc(C23CC4CC(CC(C4)C2)C3)cc1)S(C)(=O)=O | i
CC(C)c1ccc(N2CC(C(=O)Nc3ccc(Cl)cc3Cl)CC2=O)cc1 (stereo not drawn) | i
Cc1cccc(NC(=O)CN(c2ccc(Oc3ccccc3)cc2)S(C)(=O)=O)c1 | 7%
O=C(Nc1ccc(F)c(Cl)c1)C1CCN(S(=O)(=O)c2ccc(F)cc2)CC1 | i
C=CCNC(=O)C1CCN(S(=O)(=O)c2ccc(Cl)cc2)CC1 | i
COc1cc(NC(=O)CN2C(=O)c3ccccc3C2=O)c(OC)cc1Cl | i
Cc1ccc2nc(/C(C#N)=C/c3sccc3C)[nH]c2c1 | 2%
COc1ccc(NC(=O)C2CCN(C(=O)c3ccc(Br)cc3)CC2)cc1 | i
O=S(=O)(Nc1ccccn1)c1ccc(C2CCCCC2)cc1 | i
CSc1ccc(-c2nnn(CC(=O)Nc3ccccc3SC)n2)cc1 | i
O=C(COc1ccccc1)Nc1nnc(SCc2cccc(Cl)c2)s1 | i
Cc1ccc([N+](=O)[O-])cc1-n1c(/C=C/c2ccc(O)cc2)nc2ccccc2c1=O | i
CN(c1ccccc1C(=O)Nc1ccc2c(c1)OCCO2)S(C)(=O)=O | i
CC(C)C1Cc2c(sc3[nH]c(=S)n(Cc4ccccc4)c(=O)c23)CO1 (stereo not drawn) | 49%
CCN1C(=O)C(O)(CC(=O)c2ccc(Br)s2)c2ccccc21 (stereo not drawn) | i
Cc1ccc(C(=O)Nc2ccc(CC#N)cc2)cc1 | 3%
Additional results
SMILES | Mtb H37Rv
CCN(CC)S(=O)(=O)c1ccc(NS(=O)(=O)c2ccc(OC)c(Cl)c2Cl)cc1 | i
COC(=O)c1ccccc1NC(=O)NCc1cccs1 | i
COc1cc(S(=O)(=O)N2CCN(S(=O)(=O)c3cc(OC)c(C)cc3C)C(C)C2)c(C)cc1C (stereo not drawn) | i
COc1ccc(S(=O)(=O)Nc2cccc(N(C)S(C)(=O)=O)c2)c(Cl)c1Cl | i
Cc1cc(SCCC#N)nc2ccccc12 | 2%
O=C(Oc1cc2oc(=O)c3c(c2cc1Cl)CCC3)C1CCCCC1 | i
CCc1ccc(OCC(=O)Nc2ncn[nH]2)cc1 | 2%
CCOc1ccc(C2C(C(=O)OC)=CNC=C2C(=O)OC)cc1 | 4%
COc1ccc(OC)c(S(=O)(=O)NCC2CCCO2)c1 (stereo not drawn) | i
Cc1ccc(NS(=O)(=O)c2cc(C(=O)N3CCOCC3)ccc2C)c(C)c1 | i
CCCCC(=O)N1CCN(c2cc(C)c(C(=O)CCC)cc2F)CC1 | 4%
O=C(NC1C2CC3CC(C2)CC1C3)c1ccc2c(c1)OCO2 (stereo not drawn) | i
OCCCNC(=S)Nc1ccccc1F | i
CCOC(=O)c1sc(N2CCc3ccccc32)nc1C | i
CN(C)c1ccc(NC(=S)Nc2cccc(C(F)(F)F)c2)cc1 | i
O=C(COc1ccccc1Cl)Nc1cccc(NC(=O)c2ccco2)c1 | i
COc1ccccc1C(=O)Nc1ccccc1C(=O)Nc1ccc(F)cc1 | i
CCN(CC)C(=O)c1ccc(NC(=O)c2ccccc2I)cc1 | i
CCOC(=O)C1=CN(C)C=C(C(=O)OCC)C1c1ccccc1OCC | i
COC(=O)c1ccc(NC(=S)N2CCN(c3ccc(F)cc3)CC2)cc1 | i
O=C(O)c1ccc(S(=O)(=O)N2CCCCC2)cc1 | i
COc1ccc(C2NC(=S)NC(C)=C2C(=O)Nc2ccccc2)cc1 (stereo not drawn) | 11%
COCCCN1C(=O)c2oc3ccc(Cl)cc3c(=O)c2C1c1cc(OC)c(OC)c(OC)c1 (stereo not drawn) | i
N#Cc1cn(CC(=O)NCc2ccccc2)c2ccccc12 | i
CCOC(=O)c1ccc(NS(=O)(=O)c2ccc(C(C)(C)C)cc2)cc1 | i

3 compounds from above, ordered by number of heavy atoms, low to high.
SMILES | Mtb H37Rv
O=C(NC1C2CC3CC(C2)CC1C3)c1ccc2c(c1)OCO2 (stereo not drawn) | i
CN(C)c1ccc(NC(=S)Nc2cccc(C(F)(F)F)c2)cc1 | i
O=C(Oc1cc2oc(=O)c3c(c2cc1Cl)CCC3)C1CCCCC1 | i

(list continues)
SMILES | Mtb H37Rv
Cc1ccc(S(=O)(=O)N(C)c2c(C)ccc(S(=O)(=O)N3CCN(C)CC3)c2C)cc1 | i
COC(=O)c1c(NC(=O)CC2NCCNC2=O)sc2c1CCCC2 (stereo not drawn) | i
O=[N+]([O-])c1ccc(S(=O)(=O)CC(CN2CCOCC2)N2CCOCC2)cc1 (stereo not drawn) | 6%
CC1(C)CC(NC(=O)COc2ccc(C(C)(C)C)cc2)CC(C)(C)N1 | i
COc1cccc(OC)c1C(=O)NCc1ccc(Cl)c(Cl)c1 | 16%
Cc1ccc(N2CC(C(=O)Nc3ccc(Br)cc3F)CC2=O)cc1 (stereo not drawn) | 2%
CCCc1cc(=O)[nH]c(/N=C(\N)Nc2ccccc2)n1 | i
Cc1ccc(SCC(=O)NCc2ccccc2C)cc1 | i
O=C(CN1C(=O)c2ccccc2C1=O)Nc1sc2c(c1C(=O)NCc1ccco1)CCCC2 | i
CCc1ccc(N(CC(=O)Nc2c(C)cccc2CC)S(C)(=O)=O)cc1 | i
CC(=O)Nc1ccc(-n2[nH]c(C)cc2=O)cc1 | i
O=C(NCc1ccco1)c1ccc(CN2CCc3ccccc3C2)cc1 | i
COc1ccccc1C(NC(=O)c1ccccc1)c1ccc2cccnc2c1O (stereo not drawn) | 9%
COc1ccc(OCCC(=O)N2CCCCC2)cc1 | i
CCOC(=O)C(C)N1C(=O)C(=O)c2cc(Br)ccc21 (stereo not drawn) | 2%
CCOc1ccc(C2=CSC3=NCCN23)cc1Cl | i
CCOC(=O)C(C)C1c2cc(Br)ccc2OC(=O)C1C(=O)NCc1ccccc1 (stereo not drawn) | i
CCN(CC)c1ccc(NC(=O)c2c(OC)cccc2OC)c(C)c1 | i
COc1cccc(C2CC(c3c(F)cccc3Cl)n3nc(N)nc3N2)c1 (stereo not drawn) | i
CCOc1ccccc1N1CCN(C(=O)Cc2ccc(Cl)cc2)CC1 | i
CCN1CCN(C(=O)CCC2CCCC2)CC1 | i
O=C(c1ccccc1NS(=O)(=O)c1ccc2c(c1)OCCO2)N1CCOCC1 | i
CCc1cc2c(=O)c(-c3c(F)cccc3Cl)c(C)oc2cc1OC | i
Cc1ccc(S(=O)(=O)NCCC(=O)Oc2cc3oc(=O)c4c(c3cc2Cl)CCCC4)cc1 | i
CCOc1ccccc1N(CC(=O)NC1CC1)S(C)(=O)=O | i
Continuation:
SMILES | Mtb H37Rv
O=C(Nc1ccco1)c1scc(-c2ccccc2)c1C(=O)Nc1ccc(Cl)cc1 | i
CCOc1ccc(NC(=O)C(C)Sc2nc3ccccc3s2)cc1 (stereo not drawn) | i
Cc1ccc(C2=NN=C(NC(=O)CSc3nc4ccccc4s3)SC2)cc1 | i
OC(Cn1ccc2ccccc21)Cn1cnc2ccccc21 (stereo not drawn) | i
Cc1ccc(C(=O)NCCC2=CCCCC2)cc1I | 2.9µg/mL*
CCc1ccc(NC(=O)CSc2nc3ccc([N+](=O)[O-])cc3[nH]2)cc1 | ?
C=CCn1c(SCC(=O)c2cccs2)nnc1-c1ccncc1 | 1%
Cc1ccc(C(=O)N2CCN(C)CC2)cc1Br | i
COc1cccc(-c2cc(C(=O)Nc3cc(OC)ccc3OC)c3ccccc3n2)c1 | i
O=C(Oc1ccc2c(=O)c(-c3ccccc3Cl)coc2c1)c1ccccc1Br | 5%
CCN(CC)C(=O)c1sc(NC(=O)c2cc(F)c(F)cc2Cl)c(C#N)c1C | i
CC(=O)Nc1ccc(C(=O)NC(C)(C)CC(C)(C)C)cc1 | i
CCOc1ccc(NC(=O)C(C)Oc2ccc(Cl)cc2Cl)c([N+](=O)[O-])c1 (stereo not drawn) | i
Cc1ccccc1-n1c(-c2ccccc2Cl)n[nH]c1=S | i
CCCCOc1ccc(OCc2ccc(S(=O)(=O)Cc3ccccc3)cc2)cc1 | 3%
COc1ccc(NC(=O)NCCN2Cc3ccccc3C2=O)cc1 | i
O=C(COc1ccc2c(C(F)(F)F)cc(=O)oc2c1)c1ccc(Cl)cc1 | i
COc1c(F)c(F)c(C(=O)Nc2ccc(NC(=O)c3cc4ccccc4o3)c(C)c2)c(F)c1F | i
CN1CCN(C2CCN(C(=O)c3ccc(F)cc3)CC2)CC1 | i
CCOC(=O)c1c(NC(=O)CSc2nccc(C)n2)sc(C)c1C | i
O=C(Cc1ccccc1)Oc1cccc(N2C(=O)CCC2=O)c1 | i
O=C(COc1ccc(S(=O)(=O)NCCc2ccccc2)cc1)N1CCN(c2ccccc2F)CC1 | i
COc1ccc(NC(=O)c2cc([N+](=O)[O-])ccc2NC2CCCCC2)cc1 | 16%
CCC(=O)NC(=S)Nc1ccc(NC(=S)NC(=O)c2ccco2)cc1 | 1%
CCC(C)(C)NS(=O)(=O)c1cccs1 | 2%
Following part:
SMILES | Mtb H37Rv
CC(Oc1ccccc1)C(=O)Nc1ccc(C(=O)NC(C)(C)C)cc1 (stereo not drawn) | 4%
CCOC(=O)COc1ccc(S(=O)(=O)Nc2ccc(C)c(C)c2)cc1 | 1µg/mL*
Cc1cc(C)n(C(=O)c2ccccc2C)n1 | 2%
Cc1onc(-c2ccccc2)c1C(=O)Nc1nc2c(C)cccc2s1 | i
CC(=O)NC(=S)NNC(=O)c1ccc(Cl)cc1Cl | 34%
N/C(=N\OC(=O)NC1CCCCC1)c1ccc(Cl)cc1 | 42%
CC(C)(C)c1ccccc1NC(=O)c1ccc(Cl)cc1 | i

Entries from the list above containing two or more sulfur atoms (14):
SMILES | Mtb H37Rv
CC(C)c1ccc(S(=O)(=O)N2CCCN(S(=O)(=O)c3ccc(C(C)C)cc3)CC2)cc1 | i
CSc1ccc(-c2nnn(CC(=O)Nc3ccccc3SC)n2)cc1 | i
O=C(COc1ccccc1)Nc1nnc(SCc2cccc(Cl)c2)s1 | i
CC(C)C1Cc2c(sc3[nH]c(=S)n(Cc4ccccc4)c(=O)c23)CO1 (stereo not drawn) | 49%
CCN(CC)S(=O)(=O)c1ccc(NS(=O)(=O)c2ccc(OC)c(Cl)c2Cl)cc1 | i
COc1cc(S(=O)(=O)N2CCN(S(=O)(=O)c3cc(OC)c(C)cc3C)C(C)C2)c(C)cc1C (stereo not drawn) | i
COc1ccc(S(=O)(=O)Nc2cccc(N(C)S(C)(=O)=O)c2)c(Cl)c1Cl | i
Cc1ccc(S(=O)(=O)N(C)c2c(C)ccc(S(=O)(=O)N3CCN(C)CC3)c2C)cc1 | i
CCOc1ccc(NC(=O)C(C)Sc2nc3ccccc3s2)cc1 (stereo not drawn) | i
Cc1ccc(C2=NN=C(NC(=O)CSc3nc4ccccc4s3)SC2)cc1 | i
C=CCn1c(SCC(=O)c2cccs2)nnc1-c1ccncc1 | 1%
CCOC(=O)c1c(NC(=O)CSc2nccc(C)n2)sc(C)c1C | i
CCC(=O)NC(=S)Nc1ccc(NC(=S)NC(=O)c2ccco2)cc1 | 1%
CCC(C)(C)NS(=O)(=O)c1cccs1 | 2%

Not all compounds are listed, so the mix of outcomes need not match the whole.
